High-throughput results: PubChem, National Center for Advancing Translational Sciences (NCATS)
ClpP mod – qHTS Assay for Activators of ClpP. purified B. subtilis ClpP, FRET peptide cleavage, 20 min. 1.9% of 340,000 active. Potency, µM (highest dose often 57.5 µM), for inactives: at the highest dose activity change, negative = active; active = well fitted falling curve with a large enough effect; inconclusive = small, poorly fitted or top-dose-only effect; inactive = no such curve, though single readings can be large or run the other way; note: potency is the fitted concentration of half-maximal effect; the source files actives as falling curves though it sought activators and does not explain the sign; nearly all actives have a fitted effect of over 65% in size; many hits overshoot -100%
Target sequence (P80244 whole entry, looked up): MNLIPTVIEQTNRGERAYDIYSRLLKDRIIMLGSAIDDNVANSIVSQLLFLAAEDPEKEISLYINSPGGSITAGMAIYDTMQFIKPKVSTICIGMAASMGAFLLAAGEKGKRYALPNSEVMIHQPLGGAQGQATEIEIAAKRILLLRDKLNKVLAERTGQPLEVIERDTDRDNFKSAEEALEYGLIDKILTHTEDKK
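Purified B. subtilis ClpP, 10 microg/mL final in Tris/HCl pH8 with KCl, BSA, glycerol and Tween-20, cleaved an Abz/nitrotyrosine-quenched decapeptide. Fluorescence (ex 320, em 430) was read at 0 and 20 min at room temperature. Delta was normalized to 5.8 microM ADEP and DMSO/no-enzyme controls.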
TRPML1 ag – human mucolipin-1 channel agonism; Q9GZU1; TRPML1-expressing cells, Ca2+ dye fluorescence, FDSS; host cell line not named in the record; reference of the full effect not given here; activation, % (no concentration beside the values); 0.12% of 410,000 active; in the data active = activation above about 50%; inconclusive = about 30% to 50%; inactive = below about 30%; note: 0% is about no effect; the text of the record puts the active cut at 80%
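Agonist activity was taken from a 110 s kinetic Ca2+ dye read on the FDSS after pinning compounds onto TRPML1-DL cells. The cells were seeded at 1,500/well with Tet inducer, incubated about 16 h, then dye-loaded at room temperature.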
TRPML1 inh – blocks the human TRPML1 channel | TRPML1-inducible cells, Ca2+ dye fluorescence, FDSS; stronger effect = lower value; inhibition of EC80 agonist-evoked calcium signal | activity change, negative = inhibition, % (test concentration not listed) | 0.02% of 390,000 active | Q9GZU1; in the data active means activity change below about -50%; inconclusive means about -30% to -50%; inactive means above about -30%;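 note: stimulus is agonist 54-4 at its EC80 concentration; % is set by controls: 0 for no effect and ±100 for the full control effect; compound concentration not given in the record; the text of the record puts the active cut at -80%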
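Calcium fluorescence in TRPML1-DL cells induced overnight with Tet: a 110 s read after compound pin addition, then a 110 s antagonist read after challenge with 54-4 at 4 uM final (EC80).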
PINK1 expr mod – PINK1 expression modulation | Potency, µM (highest dose often 76.6 µM), for inactives: top-dose activation (PINK1 increase), usual class: activators | PINK1 immunofluorescence, high-content cytometry, 24 h | 0.2% of 410,000 active | AID 624263; active = well fitted activation curve with a large enough effect; inconclusive = small, poorly fitted or top-dose-only effect; inactive = flat fitted curve, though single readings scatter; cell line not stated here;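 note: potency is the fitted concentration of half-maximal effect; % of control where 0% means no effect; nearly all actives have a fitted effect of over 65% in size; a mitochondrial uncoupler was the plate control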
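Compound titrations (5 concentrations, 24 h) on a stable cell line; DMSO and CCCP controls. Endpoint: fixed-cell PINK1 immunofluorescence with mitochondrial, cell and nuclear markers, scanned by microplate cytometer.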
TRPV1 PAM – human TRPV1 potentiation. TRPV1-expressing cells, Fluo-8 calcium influx, capsaicin EC20 potentiation; host cell line not named in the record; control for the full effect not named in the record. potentiation, % at 8.33 µM. 0.02% of 320,000 active; active means potentiation above 80%; inconclusive means 30% to 80%; inactive means below 30%; note: 0% is about no effect
Target sequence (Q8NER1 whole entry, looked up): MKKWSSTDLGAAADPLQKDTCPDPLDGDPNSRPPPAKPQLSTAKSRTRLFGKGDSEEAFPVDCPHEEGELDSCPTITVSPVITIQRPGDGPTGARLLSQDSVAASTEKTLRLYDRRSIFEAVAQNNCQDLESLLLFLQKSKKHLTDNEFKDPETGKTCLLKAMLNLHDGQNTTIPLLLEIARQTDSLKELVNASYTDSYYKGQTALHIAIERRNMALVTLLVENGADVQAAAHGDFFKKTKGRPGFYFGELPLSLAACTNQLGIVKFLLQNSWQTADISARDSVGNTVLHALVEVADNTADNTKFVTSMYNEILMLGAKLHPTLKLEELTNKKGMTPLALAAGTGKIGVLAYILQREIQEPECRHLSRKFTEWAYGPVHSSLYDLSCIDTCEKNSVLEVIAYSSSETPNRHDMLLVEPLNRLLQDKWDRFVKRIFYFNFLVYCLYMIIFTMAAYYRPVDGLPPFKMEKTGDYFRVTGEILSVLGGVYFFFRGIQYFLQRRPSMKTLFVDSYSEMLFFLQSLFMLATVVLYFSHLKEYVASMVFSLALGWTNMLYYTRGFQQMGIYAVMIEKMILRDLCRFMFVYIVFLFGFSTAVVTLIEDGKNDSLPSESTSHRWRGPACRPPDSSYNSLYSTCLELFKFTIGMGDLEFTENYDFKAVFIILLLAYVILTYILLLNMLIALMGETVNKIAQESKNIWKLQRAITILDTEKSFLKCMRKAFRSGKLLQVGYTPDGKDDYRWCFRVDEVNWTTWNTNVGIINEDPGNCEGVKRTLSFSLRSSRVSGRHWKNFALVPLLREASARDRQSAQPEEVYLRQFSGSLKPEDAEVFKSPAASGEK
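TRPV1-expressing cells were cultured overnight at 35.5C and loaded with Fluo-8 calcium dye for 40 to 90 min at room temperature. After a 10 s baseline, compound was added and calcium influx was read kinetically for 3 min (ex 480/em 520 nm).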
Sfp PPTase inh – inhibitors of Bacillus subtilis Sfp phosphopantetheinyl transferase. 3.5% of 310,000 active. Potency, µM, for inactives: max response, negative = inhibition, usual class: inhibitors. Biochemical Sfp PPTase activity, qHTS; active = well fitted inhibition curve with a large enough effect; inconclusive = small, poorly fitted or top-dose-only effect, or another doubt; inactive = no such curve, though single readings can be large or run the other way;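 note: the enzyme is Sfp with the accession as filed and its product quenches rhodamine fluorescence; potency is the fitted concentration of half-maximal effect; 0% = enzyme reaction without inhibitor and -100% = no enzyme wells; top concentration of the series not given in the record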
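With Hepes-Na pH 7.6 buffer containing 10 mM MgCl2, Sfp (15 nM) modified BHQ-2-YbbR (12.5 uM) using rhodamine-CoA (5 uM). Two reads 30 minutes apart at 525/598 nm yielded each well's rate.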
Menin MLL FP FL – menin-MLL binding inhibition, fluorescein peptide. Fluorescence polarization, fluorescein-MLL peptide displacement from menin. FP activity change, % at 61.4 µM. 290,000 tested, under 10 active; inconclusive = falling polarisation curve, or a change in total fluorescence; inactive = total fluorescence flat and polarisation flat or rising; no compound was filed as active; the % refers to the polarisation; negative = inhibition;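 note: % of control where 0% means no effect; inhibitors lower the polarisation; unlabelled MLL peptide was the positive control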
Active calls of the source: *; u = inconclusive; x = not tested or not shown; & = joins results of further samples; [ ] = remark or other dose. Rows were taken by chance. About 4.4% of those tested had a hit in this group.

SMILES | ClpP mod | TRPML1 ag | TRPML1 inh | PINK1 expr mod | TRPV1 PAM | Sfp PPTase inh | Menin MLL FP FL
CCc1ccc2oc(C(=O)Nc3nonc3CC)c(C)c2c1 | -17%&-20% | 1.0&0.6 | -4&6 | 4.6%&2.6% | -10 | 15% | 0.0
CC(C)C(=O)Nc1ccc(NC(=O)c2cccs2)cn1 | -4.5% | 1.9 | -13 | 2.4% | 14 | 13% | -4.6
O=C(COC(=O)c1ccc(NS(=O)(=O)c2cccs2)cc1)Nc1nc2c(F)c(F)c(F)cc2s1 | x | 1.2 | 24 | 0.8% | 22 | -4% | x
N#CCc1ccc(C(=O)c2ccccc2)s1 | -4.6% | 1.2 | -21 | 0.7% | 4 | -9% | 9.9
Cc1ccc(SCC(=O)OCC(=O)N(CC(C)C)c2c(N)n(Cc3ccccc3)c(=O)[nH]c2=O)c(C)c1 | -0.1% | 0.3 | 12 | -2.3% | 7 | x | x
O=C(NC1CCN(Cc2ccccc2Cl)CC1)c1ccccc1 | -4.6% | -0.1 | -22 | -1.2% | -14 | 3% | 3.3
O=C1N=C(N2CCN(c3ccccc3)CC2)SC1Cc1ccccc1 (centres undefined) | -2.1% | 2.3 | 32 | -1.3% | -18 | -9% | 4.8
COc1ccc(C)cc1S(=O)(=O)N1CCN(c2ccccc2)CC1 | x | -0.4 | -2 | -0.7% | -2 | 6% | -0.1
COc1cccc(NC(=O)/C=C/c2ccccc2[N+](=O)[O-])c1 | -2.2% | 1.3 | -21 | -0.9% | -17 | -15% | 5.3
Cc1cccc2c1CCCC2=O | x | 2.0 | 5 | 2.1% | x | x | x
CCOc1ccc(C(C)C)cc1S(=O)(=O)n1ccnc1C | x | 3.1 | 52 | 3.4% | -28 | 0% | 0.0
COc1ccccc1C(=O)NCC(=O)NNC(=O)c1cccs1 | -2.4% | -0.4 | 10 | -0.5% | x | x | x
CC(C)(C)c1ccc(C(=O)Nc2ccc(C(=O)N3CCOCC3)cc2)cc1 | u | 0.0 | 13 | 2.3% | -10 | 8% | x
Cc1ccc2nsnc2c1S(=O)(=O)NC1CC1 | 0.5% | 0.5 | 18 | -3.6%[38.3 µM] | -5 | 17% | 0.2
CCOc1ccc(Cl)cc1CNCCCSc1nnnn1C | 0.5% | -0.7 | 17 | 2.3% | x | x | x
CC(C)(C)CC(C)(C)SSc1n[nH]c(=S)s1 | x | -0.7 | 20 | -0.1% | x | x | x
CCC1CCCCN1Cc1nc2c(c(=O)n(C)c(=O)n2C)n1Cc1c(F)cccc1Cl (centres undefined) | -1.0% | -1.1 | x | 0.2% | x | x | x
Cc1ccc(-c2ccc(=O)n(CC(=O)NCCc3ccccc3)n2)cc1 | -27% | 1.6 | 6 | 1.3% | x | x | x
Cn1nnnc1SCCCNCc1ccccc1OCc1ccc(Cl)cc1 | -4.1% | 2.0 | 11 | -0.1% | x | x | x
Cc1cccc(NC(=O)CN(C)C(=O)/C=C/c2ccccc2)c1C | -2.4% | 0.5 | -13 | 1.9% | 11 | x | x
COC(=O)C1=C(C)N(Cc2ccccc2)C(=O)N[C@H]1c1cccc(F)c1 | -3.1% | -0.4 | 9 | 0.8% | x | 15% | 8.0[11.7 µM]
NC(=O)C1(N2CCCCC2)CCN(C(=S)Nc2ccc(Cl)cc2)CC1 | 0.3% | -0.3 | 7 | 3.3%[38.3 µM] | x | 13% | -0.1
Cc1ccc(CC(=O)NCCc2ccc(S(N)(=O)=O)cc2)cc1 | -2.0% | -0.1 | -9 | -0.9% | 4 | 19% | 1.2
CC1(C)CC(=O)C2=C(C1)NC(SCC(=O)Nc1ccccc1)=C(C#N)C21CCCCC1 | -3.6% | 3.0 | 14 | u | -15 | -31% | -4.7
O=C(/C=C/Nc1ccc([N+](=O)[O-])cc1Br)c1cccc2ccccc12 | 25µM* | 1.8 | 24 | u | -12 | 9% | u
The list continues.
SMILES | ClpP mod | TRPML1 ag | TRPML1 inh | PINK1 expr mod | TRPV1 PAM | Sfp PPTase inh | Menin MLL FP FL
O=S(=O)(NCCC1=CCCCC1)c1cccc2nsnc12 | -0.2% | 1.0 | 0 | 6.8%[38.3 µM] | -5 | 10% | -4.4
Cc1ccc(-c2csc3nc(C)n(-n4cccc4)c(=O)c23)o1 | -12% | -1.5 | -8 | 3.3% | -6 | 56µM* | -0.3
CCc1ccc(-c2cc(C(=O)O)c3ccccc3n2)s1 | 4.8% | 1.6 | -18 | -0.7% | 18 | 14% | 6.4
Cc1ccc2[nH]c(=O)c(-c3noc(C(C)C)n3)cc2c1 | 5.2% | -0.4 | -8 | 0.3% | x | -2% | 0.6
O=C(O)c1ccc(S(=O)(=O)NCc2ccc3c(c2)OCO3)cc1 | 1.7% | 0.3 | 22 | 2.7% | -11 | 10% | 3.0
O=C(NCc1ccc(Cl)s1)c1cc(COc2c(F)cccc2F)on1 | x | 2.7 | 6 | 4.6% | -12 | 5% | 3.8
Cc1c(Oc2ccc(C(F)(F)F)cc2[N+](=O)[O-])ccc2c3c(c(=O)oc12)CCC3 | -20% | -0.5 | 9 | -1.6% | 1 | 0% | -0.4
CCOc1ccc(-c2nonc2NC(=O)COc2ccc(C)c(C)c2)cc1OCC | 1.3% | 2.3 | 11 | 8.3% | x | x | x
CSc1nc(NC(C)=O)nc(C)c1Cl | -2.7% | -0.7 | 2 | 0.2% | 0 | 6% | -0.5
CCN(CC)S(=O)(=O)c1ccc2[nH]cc(C(=O)NCCC3=CCCCC3)c(=O)c2c1 | -12% | -1.4 | 22 | 3.4% | 14 | 2% | 0.9
CC(C)C(NC(=O)c1ccccc1F)C(=O)NCC(c1ccco1)N1CCCCC1 (centres undefined) | -5.8% | -0.6 | 9 | 0.3% | x | x | x
COC(=O)CC1C(=O)NCCN1C(=O)CSc1nc2ccc([N+](=O)[O-])cc2s1 (centres undefined) | x | -0.1 | 6 | 2.6% | 4 | -1% | 1.5
CC1(C)CC(=O)C2=C(C1)N(c1ccccc1)C(=O)C(C(=O)OCc1ccccc1)C2 (centres undefined) | -2.4% | 1.3 | 0 | -0.3% | x | x | x
CCOc1ccccc1NC(=O)CCCc1nc(-c2ccccc2Cl)no1 | -1.2% | 1.5 | 14 | 1.1% | x | x | x
Cc1nc2cc(NC(=O)N3CCN(c4ccccn4)CC3)ccc2o1 | 25µM* | 0.8 | -4 | u | 15 | 13% | 2.7
O=C(Nc1cccc2ccccc12)c1csc([C@@H]2O[C@H](CO)[C@H](O)[C@H](O)[C@H]2O)n1 | 1.8% | -0.7 | x | 0.0% | x | x | x
COc1ccc(C(C(=O)NC2CCCC2)N(Cc2ccc(F)cc2)C(=O)c2ccn[nH]2)cc1OC (centres undefined) | -0.3% | -0.5 | 20 | x | x | 11% | -2.3
Cc1nnc(SCC(=O)Nc2cc(C(F)(F)F)ccc2N2CCOCC2)o1 | 0.1% | -0.9 | 15 | -0.5% | 14 | 8% | 1.3
CCN(CC)C(=O)C1CCCN(C/C(C)=C/c2ccccc2)C1 (centres undefined) | -0.9% | -0.7 | 32 | 6.1%[38.3 µM] | 16 | 79µM* | -1.3
FC(F)(F)c1nnc(N2CCN(c3ccc(Cl)cc3)CC2)s1 | 1.3% | -0.8 | 24 | 4.3% | -5 | -4% | -0.4
CN(CC(=O)Nc1ccccc1Br)c1ncnc2sccc12 | x | -0.7 | 2 | 2.0% | -1 | 15% | 5.5
CCOc1cc(C)c(Cl)cc1S(=O)(=O)NCc1ccc2c(c1)OCO2 | 105% | 1.7 | -2 | 2.9% | -5 | 4% | -5.9
CCN(c1ccc(NC(=O)COC(=O)CCc2nc3ccccc3n2-c2ccccc2)cc1)C(C)C | -0.9% | 1.5 | 16 | 0.0% | 8 | 4% | 5.8
O=C(NNC(=S)NC1CC2C=CC1C2)c1ccncc1 (centres undefined) | x | 0.2 | 5 | 0.5% | -19 | -5% | -2.4
Cc1ccc(C2C(C#N)=C(N)SC(N)=C2C#N)c(C)c1 | u | 64* | 1 | 4.7% | 25 | 79µM* | u
Going on with the list.
SMILES | ClpP mod | TRPML1 ag | TRPML1 inh | PINK1 expr mod | TRPV1 PAM | Sfp PPTase inh | Menin MLL FP FL
NNC(=O)c1cc2c(s1)-c1cc(Cl)ccc1SC2 | x | 0.3 | 1 | 7.5% | 20 | 5% | 1.8
CC(C)(C)OC(=O)N1CCCC1C(=O)NC(Cc1ccccc1)C(=O)O (centres undefined) | 2.8% | -0.2 | 32 | 0.2% | -2 | 20% | 3.9
O=c1c2cn[nH]c2nc(SCc2ccc3c(c2)OCCO3)n1-c1ccccc1 | 0.5% | -0.5 | 6 | 1.5% | 8 | 3% | -3.3
CCN(CC(=O)Nc1ccc(OC)cc1)C(=O)CSCc1c(C)noc1C | 1.8% | 0.2 | -1 | 0.7% | -2 | x | x
CC(=O)N1CCSc2ccc(S(=O)(=O)N3CCC(C)CC3)cc21 | -0.3% | 0.6 | 2 | 0.8% | -6 | 16% | x
CCOc1ccc(OCCOCCNCCOC)cc1 | -2.7% | 60* | -25 | -2.5% | 3 | -1% | 3.2
Nc1ccc2nc(NC(=O)C3CCCCC3)sc2c1 | 0.6% | -0.9 | 25 | 2.4% | -1 | 7% | 0.3
COc1ccc(C(=O)c2c(C)c3ccccc3n2CC(O)CNC(C)C)cc1 (centres undefined) | -1.8% | 1.3 | 22 | -1.2% | 1 | 32µM* | -1.7
Fc1ccc(Br)cc1C1C=C(c2ccc(Br)cc2)Nc2ncnn21 (centres undefined) | -22% | u | 12 | 27%[38.3 µM] | 2 | -3% | 0.8
COC(=O)c1ccc(Nc2nc(-c3ccc(C)cc3)nc3ccccc23)cc1 | 3.5% | 0.2 | 27 | 1.1% | x | x | x
COc1ccc(/C=C/C(=O)OCC(=O)Nc2ccc(N3CCOCC3)cc2)cc1 | -5.1% | 0.2 | 1 | 5.0% | -7 | -10% | -5.9
COc1ccc(NC(=O)C(c2ccccc2)c2ccccc2)cn1 | x | -0.2 | -11 | 0.0% | 2 | 17% | 3.5
CCOc1cccc2cc(-c3nnc(Nc4ccc(F)c(Cl)c4)s3)c(=O)oc12 | 3.6% | -0.7 | -1 | 1.5% | x | x | x

Compound profiles, as listed above. Order of values: ClpP mod	TRPML1 ag	TRPML1 inh	PINK1 expr mod	TRPV1 PAM	Sfp PPTase inh	Menin MLL FP FL
`CCOc1cccc2cc(-c3nnc(Nc4ccc(F)c(Cl)c4)s3)c(=O)oc12` as listed: 3.6%	-0.7	-1	1.5%	x	x	x
`CCOc1ccc(OCCOCCNCCOC)cc1` as listed: -2.7%	60*	-25	-2.5%	3	-1%	3.2
